Cruzain noTriton – inhibitors of Trypanosoma cruzi cruzain without detergent | AID 1476 | Potency, µM, for the others: max response, negative = inhibition, usual class: inhibitors | purified cruzain, Z-FR-AMC fluorescence, no detergent | hit rate 2.3% among 200,000;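 further: plate controls were enzyme without inhibitor for no effect and buffer without enzyme for full effect; nearly all actives have a fitted effect of over 40% in size; top concentration of the series not given in the record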
Target sequence (P25779 123-467 limits assumed): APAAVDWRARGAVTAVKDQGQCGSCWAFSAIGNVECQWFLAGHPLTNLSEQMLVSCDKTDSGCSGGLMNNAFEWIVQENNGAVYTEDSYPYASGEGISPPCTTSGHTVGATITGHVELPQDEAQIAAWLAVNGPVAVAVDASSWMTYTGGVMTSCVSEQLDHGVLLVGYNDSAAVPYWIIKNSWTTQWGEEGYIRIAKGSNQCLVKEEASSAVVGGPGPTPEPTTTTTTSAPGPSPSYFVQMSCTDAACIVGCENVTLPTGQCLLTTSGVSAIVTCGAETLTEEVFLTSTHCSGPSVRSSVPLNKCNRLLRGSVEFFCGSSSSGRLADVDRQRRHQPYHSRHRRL
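Purified cruzain at 1.5 nM, pre-incubated 15 min with compound at room temperature in 100 mM sodium acetate pH 5.5, 5 mM DTT, 0.00005% Triton X-100. Reaction started with 2 uM Z-FR-AMC; AMC fluorescence increase over 60 s gives rate.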
NS1 function inh – blocks influenza NS1 protein function | AID 2326 | hit rate 0.4% among 270,000 | S. cerevisiae slowed by influenza A NS1, growth recovery by OD600 | Potency, µM (highest dose often 46.1 µM), for the others: at the highest dose activity, positive = more growth; active means well fitted rising curve with a large enough effect; inconclusive means small, poorly fitted or top-dose-only effect; inactive means no such curve, though single readings can be large or run the other way; further: nearly all actives have a fitted effect of over 50% in size
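In this qHTS, NS1 from influenza A is expressed in budding yeast, where it slows growth. Cells are switched from glucose to 2% galactose medium (pH 6.0, -URA), treated with compound, and growth recovery is read at OD600.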
Cruzain inh Det – cruzain (T. cruzi) inhibition with detergent. purified cruzain, Z-FR-AMC fluorescence, 0.01% Triton. Potency, µM, for the others: max response, negative = inhibition, most hits filed as inhibitors. hit rate 0.43% among 200,000. AID 1478;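 further: plate controls were neutral wells for no effect and buffer without enzyme for full effect; nearly all actives have a fitted effect of over 40% in size; top concentration of the series not given in the record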
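Detergent-containing run (0.01% Triton X-100) in acetate buffer pH 5.5 with 5 mM DTT: enzyme at 1.5 nM final, 15 min compound preincubation at room temperature, then 2 uM Z-FR-AMC substrate. Activity taken as 60 s fluorescence increase at 360/450 nm.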
LASV entry inh – inhibitors of Lassa virus binding or cell entry; Lassa virus pseudotype entry inhibition, cell reporter; control for the full effect not named in the record; Potency, µM (titrated, usually from 37.9 µM), for inactives: at the highest dose activity change, negative = inhibition, hits mostly inhibitors; hit rate 1.2% among 300,000; AID 540256; active means well fitted inhibition curve with a large enough effect; inconclusive means small, poorly fitted or top-dose-only effect, or effect the other way; inactive means flat fitted curve, though single readings scatter; tested in HEK293 cells; further: on the % scale 0 is the no-effect control and ±100 the full control effect; nearly all actives have a fitted effect of over 50% in size; luciferase read-out
StopGo reporter – lowers the luciferase signal of an FMDV 2A StopGo reporter. Potency, µM (titrated, usually from 57.9 µM), without a hit: top-dose signal change, negative = less light. human cells with a luciferase reporter of 2A StopGo recoding; control for the full effect not named in the record. AID 1159524. hit rate 1.2% among 410,000; active = well fitted falling curve with a large enough effect; inconclusive = small, poorly fitted or top-dose-only effect; inactive = no such curve, though single readings can be large or run the other way; tested in HEK293T cells; further: on the % scale 0 is the no-effect control and ±100 the full control effect; nearly all actives have a fitted effect of over 45% in size; luciferase light after 4 h
Marburg entry inh – Marburg virus entry inhibition; AID 540276; Marburg virus pseudotyped entry inhibition, cell reporter; control for the full effect not named in the record; about a third of the inactives were read at about 46 µM; hit rate 1.8% among 300,000; Potency, µM (top dose mostly 37.8 µM), inactives show at the top dose activity change, negative = inhibition, hits mostly inhibitors; active = well fitted inhibition curve with a large enough effect; inconclusive = small, poorly fitted or top-dose-only effect, or effect the other way; inactive = flat fitted curve, though single readings scatter; tested in HEK293 cells; about a fifth of its hits are not listed in these tables; further: on the % scale 0 is the no-effect control and ±100 the full control effect; luciferase read-out
RE007 growth inh – less growth of the S. pombe RE007 Vpr strain. S. pombe RE007 Vpr strain, BacTiter-Glo ATP luminescence, 24 h; control for the full effect not named in the record. Potency, µM (top dose mostly 92.2 µM), inactives show at the highest dose activity change, negative = less growth. hit rate 0.21% among 360,000; active = well fitted falling curve with a large enough effect; inconclusive = small, poorly fitted or top-dose-only effect; inactive = no such curve, though single readings can be large or run the other way;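 further: on the % scale 0 is the no-effect control and ±100 the full control effect; nearly all actives have a fitted effect of over 50% in size; the assay follows cell death caused by Vpr and the record does not say whether a fall means rescue or toxicity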
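Fission yeast strain RE007, carrying one chromosomally integrated HIV-1 vpr copy, was seeded at OD 0.01 in PMG+AL medium with 23 nL pinned compound. After 24 h at 30 °C and 99% humidity, viability was read by BacTiter-Glo luminescence.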
SARS PLP yeast – inhibitors of SARS-CoV papain-like protease in yeast; S. cerevisiae expressing SARS-CoV PLpro, growth rescue; control for the full effect not named in the record; Potency, µM (top dose mostly 32.9 µM), for the others: at the highest dose activity, positive = growth rescue; hit rate 0.19% among 330,000; AID 485353; active means well fitted rising curve with a large enough effect; inconclusive means small, poorly fitted or top-dose-only effect; inactive means no such curve, though single readings can be large or run the other way; further: 0% is about no effect; nearly all actives have a fitted effect of over 55% in size; growth read by luminescence after 48 h
* marks the source's active call; other numbers are inactive results; ? = inconclusive; / = no result given; & = joins results of further samples; [ ] = dose if it differs, or a comment. Unless noted, the call rests on the fitted dose curve; in most records, active means well fitted curve in the direction sought with a large enough effect; inconclusive means small, poorly fitted or top-dose-only effect, or another doubt; inactive means no such curve, though single readings can be large; an effect the other way counts as inactive or inconclusive. Potency means the concentration at half of the fitted maximal effect.

nr	compound	Cruzain noTriton	NS1 function inh	Cruzain inh Det	LASV entry inh	StopGo reporter	Marburg entry inh	RE007 growth inh	SARS PLP yeast
1	COc1cccc(NC(=O)N(Cc2cn(C)c3ccccc23)C2CCCCC2)c1	-6%	/	-4.9%	?	19%	2%[46.1 µM]	/	/
2	CCCNC(=O)C1CCC(Cn2c(=O)c3sccc3n(Cc3cccc(OC)c3)c2=O)CC1 (stereo not drawn)	-2%	/	-1.2%	-11%[46.1 µM]	-15%	/	/	/
3	CCC(=O)Nc1ccc(-c2nn3c(C)nnc3s2)cc1C	-5%	-3%	1.9%	-12%	0%	?	12%	-3%
4	CC1CCCCN1S(=O)(=O)c1ccc2c(c1)CCN2C(=O)CCC(=O)O (stereo not drawn)	-4%	6%	1.6%	17%	6%	25%	21%	5%
5	Brc1cccc(-c2nnc3n2CCCCC3)c1	-2%	?	4.6%	-4%	12%	13%	34%	-9%
6	COC(=O)c1cc(=O)n(CCc2ccc(OC)c(OC)c2)c(=Nc2ccc(F)c(Cl)c2)s1	?	0%	-4.1%	/	28µM*	-2%	-20%	9%
7	O=C(COc1ccc([N+](=O)[O-])cc1)N/N=C/c1cc([N+](=O)[O-])ccc1N1CCOCC1	-11%	10%	-11%	?	-28%	-19%	-7%	5%
8	O=C(Nc1ccc2c(c1)OCO2)C1CC(c2ccc(F)cc2)=NO1 (stereo not drawn)	-19%	-5%	-3.0%	11%	70%[activator]	?	-20%	-12%
9	COc1ccc(-n2nc(C)cc2N)cc1	/	7%	/	/	0%	/	4%	-3%
10	Cn1nccc1C(=O)N/N=C/c1cccnc1	/	-1%	/	/	-1%	/	-23%	1%
11	CCOC(=O)c1c(C)[nH]c(C(=O)CSc2nnc(CC(C)c3ccccc3)o2)c1C (stereo not drawn)	-27%	9%	-1.1%	?	-28%	?	-1%	3%
12	CCCc1nc(N)nc2c1C(=O)CC(C)(C)C2	0%	-56%	3.2%	10%	0%	-1%	20%	1%
13	Cn1c(CN2CCCC2)nc2cc(NS(=O)(=O)c3ccc(Cl)cc3)ccc21	-6%	2%	4.8%	-11%	7%	?	0%	-4%
14	Cc1oc2ncn(CC(C)C)c(=O)c2c1C(=O)Nc1cccc(C(F)(F)F)c1	-2%	/	-1.2%	-13%[46.1 µM]	-13%	/	/	/
15	COc1cnc(SCc2ccc(Cl)cc2)nc1Cl	-6%	-73%	-4.3%	7%	3%	-9%	-14%	-25%
16	CCc1ccc(C(C)NC(=O)c2ccncc2)cc1 (stereo not drawn)	/	4%	/	6%[46.1 µM]	-2%	-12%[46.1 µM]	16%	15%
17	Nc1nc(SCC(=O)Nc2cccc(C(F)(F)F)c2)n[nH]1	0%	/	-4.3%	12%[46.1 µM]	-11%	-1%[46.1 µM]	/	/
18	CN(C)c1cc(-c2ccccc2)nc(N)n1	-17%	-7%	-2.2%	/	-4%	/	-11%	11%
19	O=c1c2ccccc2[nH]c(=S)n1CCN1CCCCC1	/	4%	/	/	-24%	/	-13%	2%
20	Cc1cc(N2CCN(C)CC2)nc2ccccc12	/	-1%	/	4%[46.1 µM]	-6%	-1%[46.1 µM]	?	1%
21	O=C1CN(C(=O)C2CCC(=O)N(CCc3ccc(Cl)cc3)C2)CCN1 (stereo not drawn)	/	-4%	/	-1%	-1%	0%	-1%	9%
22	COc1cccc(N2CCN(C(=O)CCn3c(=S)[nH]c4cc5c(cc4c3=O)OCO5)CC2)c1	0%	-9%	-6.5%	/	/	/	/	3%
23	Cc1ccc(CNC(=O)[C@H](C)NC(=O)C2CCN(C(=O)[C@@H]3CCCN3C(=O)OC(C)(C)C)CC2)cc1	/	-23%	/	/	-16%	/	1%	-7%
24	COc1ccc(C2/C(=C(\O)c3cccc(OC)c3)C(=O)C(=O)N2c2ccccn2)cc1 (stereo not drawn)	-1%	-4%	-0.5%	-4%	-21%	20%	10%	-3%
25	Cc1ccn2c(-c3n[nH]c(=S)n3Cc3ccccc3)c(C)nc2c1	2%	9%	-1.8%	7%	-8%	20%	2%	12%
26	CCOc1ccc(C(C)=O)cc1CN1c2ccc(S(N)(=O)=O)cc2CC1C (stereo not drawn)	/	?	/	-8%[46.1 µM]	-30%	?	3%	-2%
27	O=C(O)c1cc(/C=C/c2ccc(N3CCOCC3)c([N+](=O)[O-])c2)nc2ccccc12	/	?	/	/	-26%	/	-12%	0%
28	O=C(N/C(=C\c1ccc(-c2ccccc2)o1)C(=O)N1CCOCC1)c1ccccc1	/	2%	/	?	-8%	?	3%	-1%
29	Cc1ccc(CN(C)CC(=O)NC(C)c2ccccc2)cc1 (stereo not drawn)	/	-5%	/	-5%	24%	0%[46.1 µM]	72%	-1%
30	O=C(Cn1nnc(-c2cccc(C(F)(F)F)c2)n1)NC(=O)NCc1ccco1	16µM*	0%	4.9%	-2%	?	-2%&-2%	-8%	9%

An excerpt of these results, with values under each structure.
Sequence of screens – Cruzain noTriton | NS1 function inh | Cruzain inh Det | LASV entry inh | StopGo reporter | Marburg entry inh | RE007 growth inh | SARS PLP yeast
#17 Nc1nc(SCC(=O)Nc2cccc(C(F)(F)F)c2)n[nH]1
→ 0% | / | -4.3% | 12%[46.1 µM] | -11% | -1%[46.1 µM] | / | /
#18 CN(C)c1cc(-c2ccccc2)nc(N)n1
→ -17% | -7% | -2.2% | / | -4% | / | -11% | 11%
#19 O=c1c2ccccc2[nH]c(=S)n1CCN1CCCCC1
→ / | 4% | / | / | -24% | / | -13% | 2%
#20 Cc1cc(N2CCN(C)CC2)nc2ccccc12
→ / | -1% | / | 4%[46.1 µM] | -6% | -1%[46.1 µM] | ? | 1%
#21 O=C1CN(C(=O)C2CCC(=O)N(CCc3ccc(Cl)cc3)C2)CCN1 (stereo not drawn)
→ / | -4% | / | -1% | -1% | 0% | -1% | 9%
#22 COc1cccc(N2CCN(C(=O)CCn3c(=S)[nH]c4cc5c(cc4c3=O)OCO5)CC2)c1
→ 0% | -9% | -6.5% | / | / | / | / | 3%
#23 Cc1ccc(CNC(=O)[C@H](C)NC(=O)C2CCN(C(=O)[C@@H]3CCCN3C(=O)OC(C)(C)C)CC2)cc1
→ / | -23% | / | / | -16% | / | 1% | -7%
#24 COc1ccc(C2/C(=C(\O)c3cccc(OC)c3)C(=O)C(=O)N2c2ccccn2)cc1 (stereo not drawn)
→ -1% | -4% | -0.5% | -4% | -21% | 20% | 10% | -3%
#25 Cc1ccn2c(-c3n[nH]c(=S)n3Cc3ccccc3)c(C)nc2c1
→ 2% | 9% | -1.8% | 7% | -8% | 20% | 2% | 12%

(list continues)
nr	compound	Cruzain noTriton	NS1 function inh	Cruzain inh Det	LASV entry inh	StopGo reporter	Marburg entry inh	RE007 growth inh	SARS PLP yeast
31	CCn1c2ccccc2c2nnc(SCCN3CCCCC3)nc21	-1%	6%	-7.1%	-20%[46.1 µM]	-14%&-16%	-26%[46.1 µM]	-15%	0%
32	COc1ccc(-c2noc(-c3ccc(Br)o3)n2)cc1	/	2%	/	?	24%	0%	-4%	0%
33	Fc1cccc(Cl)c1CSc1ccc2nnc(-c3ccccn3)n2n1	/	-4%	/	/	?	-15%[46.1 µM]	2%	0%
34	COc1ccc(-c2nc(CN3CCN(C(=O)c4ccco4)CC3)c(C)o2)c(F)c1	/	5%	/	4%	-19%	1%	-8%	3%
35	CCOC(CCNC(=O)c1cn(-c2cccc(C)n2)cn1)OCC	-1%	-3%	2.5%	1%	-15%	6%	-9%	-9%
36	Cc1cccc(-c2noc(CN(C(=O)c3ccccc3Cl)C(C)C)n2)c1	1%	/	-9.0%	-4%[46.1 µM]	-23%	-7%[46.1 µM]	/	/
37	Cc1ccc(C(=O)C2=C(O)C(=O)N(Cc3cccnc3)C2c2ccc(Cl)cc2)o1 (stereo not drawn)	/	-42%	/	-9%[46.1 µM]	16µM*	0%[46.1 µM]	5%	-3%
38	CCOC(=O)C1=C(C)N=C2c3ccccc3C(=O)C2C1c1ccc(Cl)cc1 (stereo not drawn)	-7%	21%	-5.4%	?	?	?	-10%	-12%
39	CN(C(=O)CSc1ncccc1C(=O)O)c1ccccc1	-5%	-5%	3.0%	-3%	18%	2%	3%	2%
40	O=C1c2ccccc2C(=O)N1CCc1nc(-c2ccc(Cl)cc2)no1	-13%	-8%	-2.2%	-5%	?	-6%	-21%[3.69 µM]	-3%
41	Cc1ccc([N+](=O)[O-])c(OCC(O)CNC(C)(C)C)c1 (stereo not drawn)	/	5%	/	/	-13%	/	8%	0%
42	COc1ccccc1C(=O)N/N=C(\C)CC(=O)Nc1ccccc1NC(C)=O	/	-3%	/	/	34%	/	-1%	1%
43	COC(=O)c1cc(C(=O)OC)cc(S(=O)(=O)Nc2ccc(Cl)c(N)c2)c1	3%	-5%	-11%	3%	58%[activator]	-9%	5%	0%
44	Cn1c(=O)c2c(nc(SCCN3CCOCC3)n2C)n(C)c1=O	/	2%	/	/	-10%	/	-10%	3%
45	Cc1cc(S(=O)(=O)N2CCN(c3ccc(F)cc3)CC2)ccc1-n1cnnn1	/	-7%	/	-6%	-14%	?	4%	-5%
46	O=C(Cn1ncc2c(=O)oc3ccccc3c21)NCC1COc2ccccc2O1 (stereo not drawn)	-2%	-9%	7.4%	/	?	0%	1%	2%
47	COc1ccc(CSc2nc(C)cc(=O)[nH]2)cc1	-3%	-6%	1.8%	4%	5%	?	3%	6%
48	CCOc1ccc(NC(=O)CN2CCCN(Cc3cc(C)ccc3C)S2(=O)=O)cc1	3%	/	-7.4%	-3%[46.1 µM]	0%	4%[46.1 µM]	/	/
49	COc1ccc(NC(=O)C(c2ccc(OC)cc2)N(C)C(=O)CC2NC(=O)NC2=O)cc1 (stereo not drawn)	-1%	-2%	3.1%	-3%	8%	8%	1%	0%
50	CCCCCc1nnc(NC(=O)C2CCCO2)s1 (stereo not drawn)	7%	-6%	3.3%	4%	63%[activator]	4%	14%	-9%
